High-throughput results deposited in PubChem BioAssay by several laboratories.
Vif TR-FRET: inhibitors of Vif binding to APOBEC3G peptide, primary screen, biochemical, TR-FRET, GST-Vif 1-94, biotin-A3G peptide, dose response retest (AID 1117319); 0.57% of 260,000 active; TR-FRET GST-Vif / biotin-A3G peptide binding; higher % means a stronger effect; test concentration not given here; strong numbers were not always called active; one-dose inhibition, %; IC50 in µM for titrated hits;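 active = above the screen mean plus three standard deviations and confirmed in dose response; inconclusive = results disagree or hit not tested in dose response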;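 note: Vif residues 1-94 fused to GST binding biotinylated APOBEC3G peptide 110-148; 0% = full assay without inhibitor and 100% = GST in place of GST-Vif; retest series ran down from 100 µM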
FGF22 binding: FGF22 (human) thermal shift binding; recombinant FGF22 thermal shift, SYPRO orange fluorescence; percent of sucrose octasulfate shift, DMSO zero; AID 651658; Q9HCT0; 1.5% of 340,000 active; calls only at 9.99 µM;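 active = melting point raised past a set limit in the mean and every replicate; inconclusive = no clear call; three in four hits are not shown here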
Target sequence (Q9HCT0 whole entry, looked up): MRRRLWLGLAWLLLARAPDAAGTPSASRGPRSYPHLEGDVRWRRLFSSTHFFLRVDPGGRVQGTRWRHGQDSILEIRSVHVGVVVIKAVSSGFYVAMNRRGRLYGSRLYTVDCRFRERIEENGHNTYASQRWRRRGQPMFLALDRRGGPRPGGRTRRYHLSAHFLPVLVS
rRNA inh HTS: inhibitors of bacterial rRNA selective over humanized ribosomes. GFP signal change (wild-type ribosome), % (test concentration not listed). AID 720706. E. coli WT GFP vs humanized-ribosome RFP mutants, fluorescence, 24 h; stronger effect = lower value; DMSO median 0, no signal -100. 1.6% of 350,000 active;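 active = significant combined selectivity score with lowered wild-type GFP, culture density cut under 30%, mutant RFP and density less affected; inactive = any of these conditions unmet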; note: one replicate is shown; some compounds called inactive have numbers as strong as hits
E coli growth: E. coli growth inhibition; Escherichia coli growth, OD600, 23 h; stronger effect = lower value; OD600 absorbance (concentration not given with the values); 0.21% of 330,000 active; AID 1053175;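 active = OD600 absorbance below the run mean of sample wells minus 3.6 SD, in any replicate, cut at about 0.56 in these data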;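 note: stock transfer was 300 nL into about 60 µL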
HNF4A DNA FP: change in binding of human HNF4 alpha to DNA; HNF4a-FITC DNA binding, fluorescence polarization, 1 h; activity change, % at 10 µM; 0.3% of 360,000 active; AID 1224865; in the data active = activity change above about 30%, passing the limit was not always enough;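 note: controls were the assay level and a saturating level of protein; the project sought stronger binding though the title names inhibitors; some compounds called inactive have numbers as strong as hits; positive values seem to mean higher polarization but the record does not say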
Target sequence (P41235 whole entry, looked up): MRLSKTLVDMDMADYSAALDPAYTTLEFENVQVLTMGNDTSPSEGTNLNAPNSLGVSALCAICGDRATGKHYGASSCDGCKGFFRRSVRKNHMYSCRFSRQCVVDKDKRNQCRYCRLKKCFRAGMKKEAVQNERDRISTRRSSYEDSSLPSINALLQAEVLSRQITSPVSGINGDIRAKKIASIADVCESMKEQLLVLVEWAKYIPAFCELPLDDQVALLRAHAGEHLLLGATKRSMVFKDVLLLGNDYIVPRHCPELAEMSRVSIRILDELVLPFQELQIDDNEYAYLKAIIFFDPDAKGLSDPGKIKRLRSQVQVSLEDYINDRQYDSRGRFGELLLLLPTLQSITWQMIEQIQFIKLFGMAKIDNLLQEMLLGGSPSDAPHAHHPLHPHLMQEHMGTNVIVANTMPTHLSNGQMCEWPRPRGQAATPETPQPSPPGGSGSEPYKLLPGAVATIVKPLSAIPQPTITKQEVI
ALR inh: inhibitors of human sulfhydryl oxidase ALR; AID 485317; purified ALR, DTT oxidation, H2O2 HRP-luminol luminescence; inhibition, % (no concentration beside the values); 3.8% of 290,000 active; P55789;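 active = mean and each replicate at 75% or more; inconclusive = only one of the two met; inactive = neither met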;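 note: stock transfer was 7.5 nL into about 7.5 µL; 0% = neutral wells and 100% = wells with inactivated enzyme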
Target sequence (P55789 whole entry, looked up): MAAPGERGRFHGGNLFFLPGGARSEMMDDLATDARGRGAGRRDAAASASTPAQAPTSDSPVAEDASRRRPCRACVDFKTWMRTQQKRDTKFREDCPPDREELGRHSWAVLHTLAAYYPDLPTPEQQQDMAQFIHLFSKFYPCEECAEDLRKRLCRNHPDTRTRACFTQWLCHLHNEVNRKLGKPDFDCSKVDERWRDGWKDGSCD
AF4-AF9 inh: inhibitors of human MLL-AF4/AF9 interaction; P42568; AlphaScreen, biotin-AF4 peptide binding to FLAG-AF9; inhibition, % at 10 µM; 0.47% of 350,000 active; AID 651704;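 active = every replicate reaching a set inhibition limit, whatever the replicate mean, cut at about 25% in these data; inconclusive = mean inhibition reaches that limit but some replicates miss it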;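 note: 0% = plate neutral control median and 100% = total signal loss; the record names both 10 and 1 µM as test concentration; the first replicate is given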
rRNA inh HTS OD600: second read-out of rRNA inh HTS, no call of its own (marks repeat the call); OD600 change, %; measured here: OD600 growth;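 optical density of the mix in the first replicate; 0 = DMSO median and -100 = no signal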
rRNA inh HTS RFP: recorded beside rRNA inh HTS, whose call it bears; RFP signal change, %; measured here: RFP humanized mutant strains;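 first replicate; 0 = DMSO median and -100 = no signal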
Numbers without * were called inactive; i = inactive; ? = inconclusive; . = not tested or not shown.

Below each SMILES – Vif TR-FRET, FGF22 binding, rRNA inh HTS, rRNA inh HTS OD600, rRNA inh HTS RFP, E coli growth, HNF4A DNA FP, ALR inh, AF4-AF9 inh
O=C(NCCN1CCOCC1)c1ccc2c(c1)N(Cc1ccc(Cl)cc1)C(=O)CS2
 : ., i, 1, 1, 1.7, 0.64, 2.9, -4, 1.9
N/C(=N\OC(=O)CCC1CCCC1)c1ccc(Br)cc1
 : ., i, 4, 7, -5.0, 0.65, -2.6, -1, -4.1
COc1ccc(-c2c(C(F)(F)F)oc3cc(OCC(=O)Nc4ccccc4C(F)(F)F)ccc3c2=O)cc1OC
 : -30%, i, 1, 7, -3.6, 0.67, -1.5, -6, -1.7
C[C@H](CO)N1C[C@H](C)[C@@H](CN(C)Cc2ccc(Cl)c(Cl)c2)Oc2ccc(N(C)C)cc2C1=O
 : ., i, -40, -73, 7.4, ., ., ., 20
CCCC#Cc1cnc2c(c1)C(=O)N([C@H](C)CO)C[C@@H](C)[C@@H](CN(C)Cc1ccc(F)cc1)O2
 : ., i, -1, -3, -0.6, ., ., ., -0.5
C[C@@H]1CN([C@@H](C)CO)C(=O)c2cccc(NC(=O)c3cnccn3)c2O[C@H]1CN(C)C(=O)Nc1ccccc1
 : ., i, -1, 5, -0.6, ., ., ., 1.3
COc1ccc(NC(=O)NC(C(F)(F)F)C(F)(F)F)cc1
 : 12%, ., ., ., ., 0.72, -1.5, ., .
O=C(CN1C(=O)NC2(CCCC2)C1=O)Nc1nc(-c2ccc(F)cc2)cs1
 : 68%, ., ., ., ., 0.73, -5.4, -5, .
O=C(CSc1ccc2nnc(-c3ccccn3)n2n1)NCC1CCCO1 (stereo not drawn)
 : -1%, i, 5, 10, 1.9, 0.74, 1.4, -18, 4.8
COCCCNC(=O)Cn1cc(C(C)=O)c2ccccc21
 : 2%, i, -2, 3, -8.6, 0.64, -0.5, -9, -2.7
CCOC(=O)c1ccc(Oc2cn[nH]c2-c2ccc(OCC(=O)NN)cc2O)cc1
 : -9%, i, 1, 4, -1.4, 0.66, -1.5, -6, -1.0
CCCNC(=O)C1(C)CCCN(C(=O)COc2ccc(Cl)cc2Cl)C1 (stereo not drawn)
 : ., i, -14, -26, -3.2, ., -2.3, ., -1.1
C[C@@H]1CN([C@@H](C)CO)C(=O)c2cc(NS(=O)(=O)c3ccc(F)cc3)ccc2O[C@@H]1CN(C)Cc1ccc(Cl)c(Cl)c1
 : ., i, -9, -35, 9.2, ., ., ., 0.0
COc1ccc(CN2CCSCC2)cc1C
 : 42%, i, 11, 5, -1.0, 0.64, 0.2, -2, 10
O=S(=O)(Nc1ccc2c(c1)nc1n2CCN(Cc2ccccc2)C1)c1ccc(F)cc1
 : 31%, ., ., ., ., 0.72, 7.2, -12, .
COc1ccc(CCN(C)C(=O)CN2C(=O)NC3(CCCCC3C)C2=O)cc1OC (stereo not drawn)
 : 1%, i, 9, 14, 2.3, 0.68, -0.4, 2, -1.7
Cc1ccccc1CSc1nnc(NC(=O)C2COc3ccccc3O2)s1 (stereo not drawn)
 : ?, ., ., ., ., 0.75, 2.7, 0, .
CC1(C)COC(c2cccc(C3=NC(C)(C)CO3)n2)=N1
 : -2%, ., ., ., ., 0.67, 0.5, -24, .
CC(C)NC(=O)N(C)C[C@@H]1Oc2ncc(C#CCC3CCCC3)cc2C(=O)N([C@H](C)CO)C[C@@H]1C
 : ., i, 0, -1, 0.1, ., ., ., -8.3
CCOCCCNC(=O)c1cc(-c2ccc(Br)s2)nc2ccccc12
 : -97%, i, 7, 14, 0.6, 0.66, 3.0, 1, 0.7
COc1cc(/C=C/C(=O)N2CCN(Cc3ccccc3)CC2)cc(OC)c1OC
 : 3%, i, 2, 6, 6.5, 0.62, -1.4, ., 4.9
COC(=O)c1ccc(C[n+]2ccccc2)cc1
 : 6%, i, 16, 16, 0.5, 0.65, -2.7, ., 1.2
O=C(C[C@@H]1C=C[C@@H](NC(=O)c2ccccc2)[C@@H](CO)O1)NCc1ccncn1
 : ., i, 6, 7, 1.4, ., ., ., -1.4
CCOC(=O)CN(C(=O)CSc1nnc2c(n1)[nH]c1ccc(OC)cc12)c1ccc(F)cc1
 : 2%, ., ., ., ., 0.7, -1.6, -6, .
CC(=O)Nc1ccc(N2C(=O)CC(Sc3nccc(C)n3)C2=O)cc1 (stereo not drawn)
 : ., i, 7, 7, 3.8, 0.67, -1.8, -1, -2.2
CC(C)(C)C(=O)Nc1cc(NC(=O)C(C)(C)C)cc(C(=O)Nc2c[nH]c(=O)[nH]c2=O)c1
 : ., i, 5, 11, -0.9, 0.66, -0.5, -4, 1.2
COc1cc(CC2C(=O)OCC2C(=O)c2ccc3c(c2)OCO3)cc(OC)c1OC (stereo not drawn)
 : 0%, i, 2, 5, 0.3, 0.72, 0.8, ., -0.4
OCCCNc1ncnc2c1ncn2[C@H]1CN(C2CCCC2)C[C@@H](CO)O1
 : ., i, 8, 7, 2.6, ., -1.8, ., 0.5
Cc1nnc(NC(=O)CCNC(=O)c2ccccc2Cl)s1
 : -8%, i, 14, 2, -1.7, 0.69, 0.2, 0, -2.8
Cc1ccc(NC(=O)Cn2nc([N+](=O)[O-])c(Br)c2C)cc1C
 : -1%, ., 4, -1, 1.3, 0.66, -0.2, -2, -19
CC1(C(=O)O)CCC(C(=O)Nc2ccccc2O)C1(C)C (stereo not drawn)
 : 0%, ., ., ., ., 0.66, 2.5, 86*, .
COc1ccc(CCNC(=O)CCNS(=O)(=O)c2cccc3nonc23)cc1OC
 : 0%, ., ., ., ., 0.7, 1.5, -2, .
C[C@@H]1CN([C@@H](C)CO)C(=O)c2cccc(NC(=O)c3ccc(-c4nccs4)cc3)c2O[C@H]1CN(C)C(=O)Nc1ccc(F)cc1
 : ., i, 3, 6, 0.8, ., ., ., -0.9
CNC[C@H]1Oc2ccc(NS(=O)(=O)c3cccs3)cc2CC(=O)N([C@@H](C)CO)C[C@H]1C
 : ., i, 3, 4, 1.0, ., ., ., -0.7
O=C(CN1C2CCC1CC(NC(=O)NC1CCCCC1)C2)NC1CC1 (stereo not drawn)
 : 13%, ., ., ., ., 0.7, 5.4, -2, .
CO[C@H]1CN(C)C(=O)c2ccc(NC(=O)Nc3ccc(F)cc3)cc2OC[C@H](C)NC[C@@H]1C
 : ., i, 0, 4, 0.2, ., ., ., 0.1
O=C(NCC[C@@H]1CC[C@H](NC(=O)c2ccncc2)[C@@H](CO)O1)Nc1ccc(Cl)cc1
 : ., i, -4, -6, 0.2, ., ., ., 7.2
COC(=O)[C@]1(C)N[C@H](CN(C)S(=O)(=O)c2ccccc2)[C@@H]2C(=O)N(C)C(=O)[C@@H]21
 : 0%, i, 12, 3, 3.7, 0.72, 0.2, ., 6.9
COc1ccccc1NS(=O)(=O)c1cc(NC(=O)c2cnccn2)ccc1N1CCOCC1
 : 18%, i, -10, -13, 0.4, 0.68, -1.2, ., .
CCC(=NNC(=O)c1cccc(S(=O)(=O)N2CCOCC2)c1)c1ccccc1
 : ., i, 10, 12, -0.5, 0.71, 5.3, 0, -0.1
C[C@H](NC(=O)C[C@H]1CC[C@@H](NS(=O)(=O)c2cccc(F)c2)[C@H](CO)O1)c1ccccc1
 : ., i, 2, -4, 1.9, ., ., ., -2.6
COc1ccc(Cl)cc1-n1c(N)c(C(N)=O)sc1=S
 : 7%, i, -14, -7, -12, 0.69, 3.1, 38, -41
CCOC(=O)N1C2=NC(C(=O)OC)=C(C(=O)OC)[C@@H]3N(C)c4ccc(OC)cc4[C@]23C[C@H]1C(=O)OC
 : ., i, 0, -3, 3.4, ., 3.4, 52, -7.2
COc1ccc(S(=O)(=O)CC(O)CN2CCCC2=O)cc1 (stereo not drawn)
 : -3%, ., ., ., ., 0.69, -0.2, 7, .
CCn1c(SCC(=O)N/N=C/C=C\c2ccccc2[N+](=O)[O-])nnc1-c1ccccc1
 : 9%, ., ., ., ., ., -2.7, -11, .

Ordered by value in rRNA inh HTS (falling): 4 of the compounds above
Compound | rRNA inh HTS
CNC[C@H]1Oc2ccc(NS(=O)(=O)c3cccs3)cc2CC(=O)N([C@@H](C)CO)C[C@H]1C | 3
C[C@H](NC(=O)C[C@H]1CC[C@@H](NS(=O)(=O)c2cccc(F)c2)[C@H](CO)O1)c1ccccc1 | 2
CO[C@H]1CN(C)C(=O)c2ccc(NC(=O)Nc3ccc(F)cc3)cc2OC[C@H](C)NC[C@@H]1C | 0
COc1ccc(Cl)cc1-n1c(N)c(C(N)=O)sc1=S | -14

The list continues.
Below each SMILES – Vif TR-FRET, FGF22 binding, rRNA inh HTS, rRNA inh HTS OD600, rRNA inh HTS RFP, E coli growth, HNF4A DNA FP, ALR inh, AF4-AF9 inh
CC(NC(=O)C1CCN(Cc2ccccc2)CC1)c1cccc2ccccc12 (stereo not drawn)
 : ., i, 8, 11, -1.1, ., 3.5, ., 0.5
CCCNC(=O)C[C@@H]1CC[C@H]2[C@H](COc3ccc(NC(=O)c4cccc(OC)c4)cc3C(=O)N2C)O1
 : ., i, -5, -2, 1.9, ., ., ., -0.1
CCC(CC)C(=O)Nc1nnc(CCc2ccccc2)s1
 : ., i, 3, 6, 1.0, 0.63, 2.3, 2, -11
Cc1ccc(C2CC(c3ccccc3)=NN2C(=O)CSc2nnc(-c3ccc(Cl)cc3)o2)o1 (stereo not drawn)
 : 3%, ., ., ., ., 0.73, -1.1, -7, .
CO[C@H]1CN(C)C(=O)c2cc(NS(C)(=O)=O)ccc2OC[C@H](C)N(C(=O)C2CCCCC2)C[C@H]1C
 : ., i, -4, -11, 0.9, ., ., ., 1.2
O=C(c1ccc(F)cc1)C1CCN(C(=O)c2ccccc2)CC1
 : ., i, -11, -11, -2.0, 0.66, -3.0, ., 0.3
CCN1CCN(c2ccc(S(=O)(=O)N3CCOCC3)cc2NC(=O)CC(C)C)CC1
 : -2%, i, 2, 12, -0.2, 0.66, 2.5, ., 2.7
CN(C(=O)COC(=O)c1ccc2ccccc2n1)C1CCCCC1
 : -1%, i, 5, -2, 4.8, 0.68, -0.6, ., -9.1
COc1cc(C(=O)Nc2ccc(NC(=O)C(C)C)nc2)cc(OC)c1OC
 : ., ., ., ., ., 0.72, -2.5, -45, .
CCCCN(CCCC)S(=O)(=O)c1ccc(SCC(=O)OCC)c([N+](=O)[O-])c1
 : 2%, i, 0, 3, -3.5, 0.67, 0.7, -22, 9.3
Cc1ccc(SCCC(=O)N/N=C/c2cccnc2)cc1
 : 1%, i, -21, -38, -6.0, ., 3.1, -2, 8.6
COCCn1ccc2c(OCC(=O)Nc3ccccc3OC)cccc2c1=O
 : -4%, ., -3, -6, -3.2, 0.68, 1.5, ., -1.5
COCC#Cc1cnc2c(c1)C(=O)N([C@@H](C)CO)C[C@H](C)[C@@H](CN(C)C(=O)C1CC1)O2
 : ., i, 9, 13, -3.7, ., ., ., 0.4
COc1ccc(CCNC(=O)CSc2c[nH]c3ccccc23)cc1OC
 : -2%, i, -4, -13, -1.9, 0.78, 1.8, 97*, 5.2
Cc1ccc(NS(=O)(=O)c2ccc(Br)cc2)nc1
 : -3%, i, -1, 6, -1.6, 0.64, 1.0, 10, -2.1
Cc1ccc(C(=O)N(CC(C)C)c2c(N)n(Cc3ccccc3)c(=O)[nH]c2=O)o1
 : 10%, i, 14, 11, -0.1, 0.64, -1.1, -43, 1.8
CCn1ncc(/C=C/C(=O)Nc2c(C)nn(Cc3ccc(Cl)cc3Cl)c2C)c1C
 : 0%, ., ., ., ., 0.75, 1.8, -7, .

Some of the compounds tested; count on the stated rates, not on these rows.
